Compound activity (PubChem)
PrP 5UTR inh = inhibition of PrP 5' UTR reporter expression; cell-based PrP 5' UTR mRNA reporter, plate reader; inhibition, % (test concentration not listed); 340,000 compounds, 0.35% hits; AID 488862;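 active = every replicate at 50% or more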;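 also: 0 = median of the neutral control wells; tested in H4 reporter cells; numbers are from one replicate; inactives centre near -14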
Sa ugtP lethal = growth inhibition of S. aureus ugtP deletion strain; S. aureus RN4220 ugtP deletion, OD600 growth, 16 h; some inactives read as strong as hits; growth inhibition, % (no concentration beside the values); 330,000 compounds, 0.54% hits; AID 1259309;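 active = z-score under -3 and OD600 up to 0.15 on both plates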;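 also: plate controls were untreated wells for no effect and antibiotic for full effect; wells of about 80 µL received 100 nL stock; the first replicate is given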
RN4220 kill = kills Staphylococcus aureus RN4220 | S. aureus RN4220 growth, OD600, 16 h | inhibition, % (no concentration beside the values) | 330,000 compounds, 0.33% hits;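 active = z-score of -3 or lower and OD600 up to 0.18 on both plates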;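 also: plate controls were untreated cells for no effect and reference antibiotic for full effect; stock transfer was 100 nL into about 80 µL; one replicate is shown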
Autofluor counter = compound fluorescence in toxin protease inhibitor counterscreen; compound autofluorescence counterscreen, microsphere flow cytometry; hits give high values; fluorescence intensity (concentration not given with the values); 360,000 compounds, 3.1% hits;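 active = at least 3 SD above the mean of all compounds, about 16000 in these data; inconclusive = too few beads counted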;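 also: 100 nL of 1 mM stock went into each well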
Mtb hypoxia rep = inhibitors of hypoxia-regulated fluorescent reporter in Mycobacterium tuberculosis. M. tuberculosis hypoxia-regulated fluorescent reporter, fluorescence. fluorescence inhibition, % (no concentration beside the values). 300,000 compounds, 0.1% hits. AID 1159583;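 active = 35 to 45% if threefold the growth effect, above 45% if 1.5-fold the growth effect; inactive = the rest, general growth blockers included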;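 also: wells of about 50 µL received 100 nL stock; 0% = vehicle wells and 100% = reference inhibitor wells; whole bacteria with a GFP reporter of the hypoxia response; strong numbers were not always called active; many hits fall short of the cut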
BJeLR lethal = kills HRASV12-expressing BJeLR cells | BJeLR (HRASV12) viability, CellTiter-Glo ATP luminescence, 48 h; reference of the scale not given here | 300,000 compounds, 0.17% hits | inhibition, % (concentration not given with the values) | AID 1554;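 active = replicate mean above 50%; inconclusive = above 50% but judged a plate artefact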;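 also: 50 nL library stock added to about 25 µL; numbers are from one replicate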
Mtb hypoxia rep growth = second read-out of Mtb hypoxia rep, no call of its own (marks repeat the call); growth inhibition, %; measured here: M. tuberculosis growth (absorbance);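 0% = vehicle and 100% = reference antibiotic; read after six days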
An asterisk follows results filed as active; u = inconclusive; x = not tested or not shown.

SMILES	PrP 5UTR inh	Sa ugtP lethal	RN4220 kill	Autofluor counter	Mtb hypoxia rep	Mtb hypoxia rep growth	BJeLR lethal
Cc1sc2ncn(CC(=O)N3CCN(c4ccccn4)CC3)c(=O)c2c1S(=O)(=O)N1CCC(C)CC1	-1	-2	3.1	4076	-3	-4	-1
COc1ccc(CCn2c(-c3cccc([N+](=O)[O-])c3)nc3nc4ccccc4nc32)cc1	-2	-2	5.7	4521	9	2	x
c1ccn2c(Cc3nnc4ccccn34)nnc2c1	-28	2	-0.7	9807	4	5	11
CCn1c(SCc2nc3ccccc3s2)nnc1-c1ccccc1	-21	x	x	3591	x	x	-7
O=c1oc2ccccc2nc1/C=C(O)/C=C/c1ccc(F)cc1	-7	x	x	2392	x	x	-8
CCCn1c(N2CCN(Cc3ccc(Cl)cc3)CC2)nc2ccccc21	34	-17	-4.8	4564	0	7	5
C=CCn1c(O)c(C(C)=NCCC2=CCCCC2)c(=O)[nH]c1=O	-20	-1	4.8	10146	12	9	6
O=C(Oc1cccc2ccccc12)c1ccco1	-16	11	6.7	5270	9	3	-1
c1ccc(C2Oc3ccccc3C3CC(c4cccs4)=NN32)cc1 (stereo unspecified)	-46	1	4.0	13888	3	12	0
COC(=O)c1ccccc1NC(=O)N1CCN(C(=O)c2ccco2)CC1	-17	-15	5.7	6093	0	10	-1
COc1ccc(-c2noc(CCCCC(=O)N3CCN(c4cc(C)ccc4C)CC3)n2)cc1	-1	9	11	2937	-6	8	x
COc1ccc(-n2c(=S)[nH]c3cc(C(=O)Nc4cc(C(N)=O)ccc4OC)ccc3c2=O)c(OC)c1	-16	10	-1.4	3604	-4	-3	-3
CCOC(=O)c1c(NC(=O)COc2ncnc3ccccc23)sc(C)c1C	-12	-1	6.7	2481	-4	-10	2
CCOC(=O)C=Cc1ccc2oc3ccccc3c(=O)c2c1	x	11	12	x	1	-3	x
O=C(CNC(=O)/C(=C\c1ccc(Br)cc1)NC(=O)c1ccccc1)OCc1ccccc1	-37	x	x	2103	x	x	15
COc1cc2c(cc1OC)-c1cc(Nc3ccc(N(C)C)cc3)nc(=O)n1CC2	-2	1	4.6	4438	9	4	-13
O=C(C1CCCN(S(=O)(=O)c2ccccc2)C1)N1CCN(c2ncccn2)CC1 (stereo unspecified)	1	11	5.3	3495	x	x	3
N#C/C(=C\c1ccco1)Sc1nc2ccccc2s1	-14	10	5.6	23761*	19	22	3
O=C(c1ccccn1)N1CCN(c2ccc(C(F)(F)F)cn2)CC1	-15	9	4.1	u	9	-1	1
Cc1noc(C(=O)Nc2ccc(F)cc2F)c1Cl	-37	5	4.5	3203	3	1	3

Fetched one by one from the entries so far, 4 records:
SMILES	PrP 5UTR inh	Sa ugtP lethal	RN4220 kill	Autofluor counter	Mtb hypoxia rep	Mtb hypoxia rep growth	BJeLR lethal
c1ccn2c(Cc3nnc4ccccn34)nnc2c1	-28	2	-0.7	9807	4	5	11
Cc1noc(C(=O)Nc2ccc(F)cc2F)c1Cl	-37	5	4.5	3203	3	1	3
CCCn1c(N2CCN(Cc3ccc(Cl)cc3)CC2)nc2ccccc21	34	-17	-4.8	4564	0	7	5
O=C(c1ccccn1)N1CCN(c2ccc(C(F)(F)F)cn2)CC1	-15	9	4.1	u	9	-1	1

(cont.)
SMILES	PrP 5UTR inh	Sa ugtP lethal	RN4220 kill	Autofluor counter	Mtb hypoxia rep	Mtb hypoxia rep growth	BJeLR lethal
CCOc1ccc(OCCNC(=O)c2oc3ccccc3c2COC)cc1	-18	9	4.0	x	x	x	x
CCOC(=O)C1CCN(CC(=O)c2c(C)n(C)c3ccc(OC)cc23)CC1	-8	13	3.3	3128	-10	-9	-7
COc1cccc(-n2nnc3c(=O)n(CC(=O)NC4CCCC4)cnc32)c1	-41	-1	3.5	20217*	5	1	4
Cc1ccccc1NC(=O)CCN1CCN(C/C=C/c2ccccc2)CC1	-5	-1	0.3	4550	3	5	-3
CSc1nc2ccccc2n1C(=O)NC1CCCCC1	2	0	5.9	u	-2	5	2
O=C(/C=C/c1ccco1)NC(=S)NNC(=O)c1ccco1	0	-13	15	4223	3	7	-7
O=C(NCc1ccccn1)c1ccc2c(=O)n(CCc3ccccc3)c(=O)[nH]c2c1	2	0	5.9	4692	1	2	-7
O=C1CSC(c2ccccn2)N1c1cccc(Cl)c1 (stereo unspecified)	7	2	0.0	4266	0	-1	2
Cc1nc2scc(C)n2c(=O)c1S(=O)(=O)N1CCN(c2ccc(F)cc2)CC1	-21	5	-1.3	5175	0	1	2
Cc1ccc(S(=O)(=O)N(Cc2ccccc2F)C(=O)N2CCN(C)CC2)cc1	-29	-2	3.3	6267	9	2	-1
Cc1nn(Cc2ccc(Cl)cc2)c2sc(C(=O)OCC(N)=O)cc12	41	-3	-17	2518	2	11	-1
Cc1ccc(-c2nc3ncccn3c2NC2CCCC2)o1	-24	-4	1.5	2481	x	x	7
C[C@H]1CN([C@@H](C)CO)C(=O)c2cc(NC(=O)C3CCCCC3)ccc2O[C@H]1CN(C)S(=O)(=O)c1ccccc1	-26	-5	-15	3813	5	8	x
COc1cc(C2SCC(=O)N2Cc2ccccc2)cc(OC)c1OC (stereo unspecified)	-3	1	6.0	3672	0	-7	13
O=C(Nc1ccc2c(c1)OCO2)NC1(C(F)(F)F)Oc2ccccc2O1	-44	-9	3.9	10463	18	4	2
C[C@@H]1CN([C@@H](C)CO)C(=O)c2cccc(NC(=O)c3ccncc3)c2O[C@@H]1CN(C)Cc1ccc(-c2ccccc2)cc1	-17	-7	6.8	3844	-5	7	x
Fc1ccc(-c2cnc3n2CCCCC3)cc1	-15	5	6.8	3164	-3	5	4
CCOC(=O)c1c(/N=C/C2C(=O)CCCC2=O)sc(C)c1C	-29	x	x	8737	x	x	14
COc1ccc(NC(=O)/C(=C/c2ccc3c(c2)OCO3)NC(C)=O)cc1	-17	6	3.5	2612	12	6	-9
Cc1cccc(C)c1NC(=O)CSc1nc2ccccc2c(=O)[nH]1	-21	-2	1.9	22821*	-2	2	3
Nc1ccc(Br)cc1	14	10	5.4	x	12	8	x
COC(=O)c1ccc(NS(=O)(=O)c2ccc(OC)cc2)cc1	-7	7	3.4	22817*	-4	2	-4
COc1ccc(NC(=S)N2CCC(C(=O)c3ccc(F)cc3)CC2)c(OC)c1	-87	5	-0.9	3356	2	6	-10
O=C(c1ccc(COc2ccccc2Cl)o1)N1N=C(C(F)F)CC1(O)C(F)F (stereo unspecified)	-7	-16	-0.9	2185	-10	3	-3
O=C(COC(=O)C12CC3CC(CC(Br)(C3)C1)C2)Nc1ccc2[nH]c(=O)[nH]c2c1	-28	-4	2.2	5603	-11	5	-10
O=C(COC(=O)c1ccc(O)cc1O)NNC(=O)c1cccs1	-33	-3	6.9	2946	10	-2	x
Clc1ccccc1SCc1nc2ccccc2[nH]1	-33	4	2.6	24664*	6	-1	11
Cc1cc(NC(=O)COC(=O)c2cc(S(=O)(=O)N(C)c3ccccc3)ccc2Cl)no1	-20	13	3.4	4753	2	-6	-16
Cc1c(Cl)cccc1NC(=O)CSc1ncnc2c1cnn2CCc1ccccc1	-24	4	2.8	2990	-4	2	4
CCC(=O)NNC(=O)CCC(=O)Nc1ccc(C)cc1C	-30	0	-0.8	3332	0	-3	-6
Nc1ccc(N=Nc2ccc(N)cc2)cc1	-12	-4	7.7	4557	11	2	1
CC(=O)c1ccc(NC(=O)C2CCCNC2=O)cc1 (stereo unspecified)	-11	0	2.6	21778*	-3	4	0
CC1CN(CCCCOc2ccc(F)cc2)CC(C)O1 (stereo unspecified)	-2	10	3.1	4621	9	-2	x
COCCNC(=O)[C@@H]1CSC2c3ccc(OC)c(OC)c3C(=O)N21 (stereo partly specified)	-12	5	-1.5	2807	1	-6	-1
CC1Cc2ccccc2N1C(=O)CSC1=NCCS1 (stereo unspecified)	-8	2	-5.3	11661	2	17	2
O=C(N/C(=C/c1ccc(Br)cc1)C(=O)N1CCCC1)c1cccs1	-6	4	2.0	2558	12	3	-1
COc1cc(C)ccc1OCCOc1c(C)cc(Cl)cc1Cl	-26	48	5.4	2079	4	1	2
O=c1c2ccccc2ncn1-c1cccc(Br)c1	-23	-8	7.3	3835	2	0	-11
CCc1nn(CC(=O)NCCCN2CCN(C)CC2)c(=O)c2cc3occc3n12	-16	12	4.0	4544	0	-4	10
COc1cccc(-c2nc3n(n2)C(c2ccccc2Cl)C(C(N)=O)=C(C)N3)c1 (stereo unspecified)	-14	3	3.4	5513	x	x	-10
Fc1ccccc1CSc1nnc2ccc(-c3ccncc3)nn12	-6	-10	3.3	6210	0	-4	-7
Cc1ccc(NC(=O)CN(C)CC(=O)Nc2ccccc2C#N)cc1	-5	-1	5.5	4292	6	5	-11
COc1nnc(-c2ccc(N3CCCCC3)c(N)c2)c2ccccc12	-23	8	4.3	3983	1	14	1
COc1ccc(C=NNC(=O)CSCC(=O)Nc2ccccc2)cc1	x	2	1.6	x	-2	0	x
CCc1nnc(-n2nc(C)cc2-c2ccccc2)n1N	-14	-1	0.5	4939	x	x	x
CC(C)(C)n1nnnc1C(c1cccs1)N1CCCC2(CCCCC2)C1 (stereo unspecified)	-18	8	0.1	9344	12	6	-5
CS(=O)(=O)N(CC(=O)Nc1ccc(Br)cc1F)C1CCCCC1	-19	-4	0.8	3161	8	-2	12
O=S1(=O)[C@H]2C[C@@H]3C=C[C@]2(CN1Cc1ccc(C(F)(F)F)cc1)O3	-16	x	x	3839	x	x	9
COc1ccc(Nc2ncnc3sccc23)cc1	-20	4	3.6	4792	12	-5	5
CCCCn1c(N)c(N(CCC(C)C)C(=O)Cc2ccc(S(=O)(=O)N3CCOCC3)s2)c(=O)[nH]c1=O	-20	-1	2.6	u	-6	11	-5
CN(Cc1c(C(=O)NN=Cc2cccc(O)c2)nnn1-c1nonc1N)C1CCCCC1	x	-1	1.0	x	2	2	x
COc1cccc(C2C(C#N)=C(N)Oc3cc(N)ccc32)c1OC (stereo unspecified)	5	-3	4.4	2727	5	6	12
O=C(NCCCN1CCCC1)c1cc(Sc2ccc(F)cc2)nc2ccccc12	7	2	10	5021	9	-2	-1
CCCCn1c(-c2ccsc2)nc2c1c(=O)[nH]c(=O)n2CCC	-3	2	1.1	9567	5	12	0
Cc1cccc(C(=O)N2CCc3c([nH]c4ccccc34)C2CC(C)C)n1 (stereo unspecified)	-37	1	1.5	4346	7	4	-1
CCCCN1C(=N)N([C@@H](CCC)CN2CCC[C@H]2CN2C(N)=NC[C@H]2CC(C)C)C[C@H]1Cc1ccccc1	-7	6	-2.3	2926	1	11	x
CCCc1nc2ccccc2c(=O)n1-c1ccc(OC)cc1	-41	5	1.4	3123	x	x	2
O=C(O)COc1ccccc1C=NNC(=O)CSc1nc2ccccc2n1Cc1ccccc1	x	15	2.2	x	4	15	x
Cc1nc2ccccc2c(=O)n1N=Cc1ccccc1	x	9	4.9	x	6	6	x
Cc1c(C(=O)N(C)Cc2ccccc2)oc2c(Cl)cccc12	-11	34	2.4	3613	0	6	-9

Carrying on.
SMILES	PrP 5UTR inh	Sa ugtP lethal	RN4220 kill	Autofluor counter	Mtb hypoxia rep	Mtb hypoxia rep growth	BJeLR lethal
CCCOC(=O)C1=C(C)NC2=C(C(=O)C(C(=O)OC)C(C)C2)C1c1ccc(N(C)C)cc1 (stereo unspecified)	-17	12	5.0	u	-2	0	-12
CCc1ccc2[nH]c(=O)c(CN(Cc3ccc(OC)cc3)Cc3nnnn3CCOC)cc2c1	-14	-7	3.8	3389	0	8	2
CCN(CC(=O)Nc1c(F)cccc1F)C(=O)CCCc1nc2ccccc2c(=O)[nH]1	-6	2	-0.1	4797	2	9	-7
CCCC(NC(=O)COc1cc2c(c3oc(=O)c(C)c(C)c13)CCC(C)(C)O2)C(=O)O (stereo unspecified)	5	0	5.6	3920	-11	2	-2
CC(C)Oc1ccc(NC(=O)C2CCCNC2=O)cc1 (stereo unspecified)	-4	-2	-1.4	11562	-3	5	1
CCN(CC)CCNC(=O)CNC(=S)N(CCCN1CCOCC1)Cc1cccs1	-6	12	2.5	4201	14	12	2
O=C1/C(=C/c2cccnc2)N2CCC1CC2	-24	7	0.6	x	15	-2	2
Cc1c(NC(=O)c2ncn[nH]2)cccc1-c1nc2ccccc2s1	-24	-5	5.8	2089	-6	1	-7
COC(=O)C1CCN(C(=O)c2ccc3nc(-c4cccc(OC)c4)oc3c2)CC1	-29	5	0.7	4552	5	15	2

Random draw from the library; about 4.1% have a hit in one of these screens.
